Screens deposited in PubChem by several laboratories.
RecA splice inh: Mtb RecA intein splicing inhibition | P9WHJ3 | cell-free RecA intein splicing, fluorescence | inhibition, %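 (about 9 µM by stock and volumes)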 | hit rate 0.75% among 290,000 | AID 2221; in the data active = inhibition above about 30%; inconclusive = no clear call, values can overlap the other calls;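 note: 0% = vehicle wells and 100% = reference inhibitor control wells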
Target sequence (P9WHJ3 whole entry, looked up, canonical isoform): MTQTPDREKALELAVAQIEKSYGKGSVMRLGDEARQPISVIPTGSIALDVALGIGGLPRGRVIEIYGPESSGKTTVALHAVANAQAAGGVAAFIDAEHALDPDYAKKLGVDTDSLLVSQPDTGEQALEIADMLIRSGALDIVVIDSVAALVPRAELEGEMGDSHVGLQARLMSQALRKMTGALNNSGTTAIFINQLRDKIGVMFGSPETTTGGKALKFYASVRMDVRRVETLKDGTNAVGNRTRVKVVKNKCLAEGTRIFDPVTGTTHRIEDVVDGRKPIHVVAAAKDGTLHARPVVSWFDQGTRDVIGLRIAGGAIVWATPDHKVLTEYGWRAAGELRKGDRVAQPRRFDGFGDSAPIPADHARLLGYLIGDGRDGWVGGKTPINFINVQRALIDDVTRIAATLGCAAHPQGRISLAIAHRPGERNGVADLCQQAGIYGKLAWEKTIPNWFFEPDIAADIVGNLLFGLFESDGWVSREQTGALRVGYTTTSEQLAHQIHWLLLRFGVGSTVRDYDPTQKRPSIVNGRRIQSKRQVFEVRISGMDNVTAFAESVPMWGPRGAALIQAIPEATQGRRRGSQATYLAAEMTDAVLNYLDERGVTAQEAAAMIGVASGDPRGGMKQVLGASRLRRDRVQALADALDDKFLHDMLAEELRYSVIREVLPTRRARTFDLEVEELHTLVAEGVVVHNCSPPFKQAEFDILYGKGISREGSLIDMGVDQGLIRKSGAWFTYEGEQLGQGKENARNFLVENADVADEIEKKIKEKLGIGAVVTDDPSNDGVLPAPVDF
Mtb H37Rv: M. tuberculosis H37Rv growth inhibitors, H37Rv strain (AID 1626); M. tuberculosis H37Rv growth inhibition; higher % means a stronger effect; inhibition, % at 10 µM; hits with a dose series show IC50 in µM; hit rate 0.95% among 220,000;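 active = confirmed in a dose series; inconclusive = inhibition above 80% but not taken into the dose series; inactive = below 80% or under 30% at every dose of the series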;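 note: bacteria incubated seven days before Alamar blue readout; 0% = bacteria only wells and 100% = bacteria with antibiotic wells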
Mtb betalactam: beta-lactam sensitization of Mtb H37Rv; inhibition, % at 25 µM; hit rate 0.27% among 330,000; M. tuberculosis H37Rv growth with meropenem, percent inhibition; hits of this screen are not shown here; AID 434955;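 active = about 74% or more and at least 40 points above the plate without the antibiotic, then above 30% in a dose series; inconclusive = first-round hits that could not be retested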;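 note: growth measured after seven days incubation then overnight dye step; 0% = bacteria only wells and 100% = bacteria with antibiotic; twin plates without the antibiotic show which effects depend on it; some results filed as inactive read as strong as hits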
YopH inh: YopH (Yersinia) phosphatase inhibition; inhibition, %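 (about 10 µM by stock and volumes)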; hit rate 0.16% among 140,000; fluorescence Ex485/Em525;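 active = inhibition of 50% or more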;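 note: controls were vehicle for no effect and minimum signal wells for full effect; inactives centre near -20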
Arbovirus inh: blocks arbovirus infection; hit rate 0.37% among 200,000; AID 1251; inhibition, % at 10 µM; arbovirus infection cell-based antiviral screen;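 active = inhibition from about 30%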;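 note: bluetongue infection of BSR cells; cell survival read as ATP light after 72 h; 0% = infected wells without compound and 100% = uninfected wells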
Arbovirus inh repeat: recorded beside Arbovirus inh, whose call it bears; inhibition, %; measured here: 10K subset replicate screen; many hits read low in the repeat;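 first of two repeat runs on a subset; 0% = infected and 100% = uninfected wells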
Starred values were filed as active, the others as inactive; ? = inconclusive; · = not tested or not shown. A portion of the library (hit frequency here may not be typical).

SMILES | RecA splice inh | Mtb H37Rv | Mtb betalactam | YopH inh | Arbovirus inh | others
CC(NC(=O)c1ccc(Br)cc1)c1ccc2c(c1)CCCC2 (centres undefined) | 4.0 | 15µM* | ? | -8 | 2
Cc1ccc(S(=O)(=O)/N=C(/NNC(=O)c2cccc(Cl)c2)c2ccccc2)cc1 | 1.3 | · | -2 | · | ·
CCOC(=O)c1ccc(N=c2scc(C)n2CC)cc1 | 8.8 | 67% | 3 | · | 13
O=C(NCc1ccccc1)C1=C[C@H](c2csc3ccccc23)C[C@H](OCCCCO)O1 | 9.3 | 4% | -3 | · | -1
Cc1cccc(NC(=O)N2CCN(Cc3ccc4c(c3)OCO4)CC2)c1C | 3.7 | 8% | -6 | · | -12
O=C(COC(=O)c1cc(S(=O)(=O)N2CCOCC2)ccc1O)Nc1cc(S(=O)(=O)N2CCCC2)ccc1Cl | -1.4 | -8% | 2 | · | ·
O=C(CSc1nnc(NC(=O)C2CC2)s1)NCc1ccccc1 | -0.1 | · | -2 | · | ·
COc1ccc(C(=O)Nc2ccnn2C2CCN(C(=O)CCC(F)(F)F)CC2)cc1 | -1.6 | · | -2 | · | ·
COc1ccc(Cn2cnc3c(N)c(C)c(C)cc32)cc1 | -0.3 | -11% | 0 | · | -10
CCCCn1c(C)c(C(=O)OCC)c2c(CN3CCOCC3)c(O)ccc21 | -4.1 | 0% | 1 | -5 | 14 | Arbovirus inh repeat=1
Cc1ccc(N(CC(=O)NC(C)c2ccccc2)S(=O)(=O)c2cccs2)cc1 (centres undefined) | -1.0 | -1% | 13 | -8 | -4
Cc1ccc(-c2c(NC(=O)c3ccco3)oc3ccccc3c2=O)cc1 | 0.2 | · | 18 | · | ·
CC1CN(CC(=O)Nc2ccc(S(N)(=O)=O)cc2)CC(C)O1 (centres undefined) | 0.7 | · | -8 | · | ·
Cc1cc2nc(-c3ccc(=O)[nH]c3)n(C)c2cc1C | 0.6 | · | 5 | · | ·
CCc1ccc(N(C(=O)c2csnn2)C(C(=O)NC(C)(C)CC)c2cccnc2)cc1 (centres undefined) | 6.1 | 6% | -3 | · | 2
COc1ccccc1NS(=O)(=O)c1cc(C(=O)NCC(C)(C)N2CCOCC2)ccc1C | 2.7 | · | -4 | · | ·
O=c1[nH]c(=O)n(Cc2ccco2)c(O)c1C=NCc1cccs1 | -0.7 | 7% | -6 | -8 | 2
Cc1nn(-c2ncc(C(F)(F)F)cc2Cl)c(=O)n1-c1cccc(F)c1 | -0.2 | 3% | -6 | · | 7
COc1ccc(O[C@H]2C=C[C@@H](c3ccccc3)O[C@@H]2COC(=O)CC/C(C)=N/OC[C@@H](O)COCc2ccco2)cc1 | 8.9 | · | 40 | -24 | 12
S=C(Nc1cccc(Cl)c1)Nc1ccccc1Oc1ccccc1 | 3.8 | 19% | 38 | -1 | -16
CC(=O)Nc1nc(C=C(Cl)Cl)cs1 | · | -16% | -1 | -15 | -2
S=C1N[C@H]2CCCC[C@@H]2N1 | 5.0 | -5% | -5 | · | ·
Cc1cc(C)n(-c2nnc(N3CCN(c4ccccc4)CC3)nn2)n1 | 3.4 | 5% | 1 | · | -18
COC(=O)N1C(=O)[C@](c2ccccc2)(C2CCCCC2)N1C(=O)OC | 11 | · | -1 | · | ·
COc1cc(OC)c(OC)cc1/C=N/N(C)c1ccccc1 | -0.3 | -1% | 87 | -8 | -17
COc1ccc(C(=O)NCCSc2ccccc2C)cc1 | 3.1 | · | 2 | · | ·
O=C(CN1CCN(C(=O)C2COc3ccccc3O2)CC1)Nc1ccc(F)cc1 (centres undefined) | 1.8 | -11% | -6 | · | ·
O=S(=O)(c1ccc(N2CCN(S(=O)(=O)c3ccccc3)CC2)nc1)N1CCCC1 | 0.0 | -2% | -8 | · | -8
COc1ccc(-c2csc(N(CC3CCCO3)C(=O)c3ccco3)n2)cc1 (centres undefined) | -0.4 | 4% | 7 | -35 | -2
O=CN1CCN(C(C(=O)NC2CCCC2)c2cc3c(cc2[N+](=O)[O-])OCO3)CC1 (centres undefined) | -3.4 | 2% | 2 | · | 5
CCCOC1CCCN(C(=O)c2ccc(OC3CCN(C(=O)CCOC)CC3)cc2)C1 (centres undefined) | 1.4 | · | -8 | · | ·
Nc1ncnc2c1ncn2[C@@H]1O[C@H](CO)C[C@H]1O | -0.2 | 3% | -1 | · | ·
Cc1ccc(CNC(=O)CSCc2ccccc2F)cc1 | 2.8 | 15% | 4 | · | 10
CC(C)CCOc1ccc(C(=O)NN2C(=O)NC3(CCCCC3)C2=O)cc1 | 0.4 | · | 1 | · | ·
O=C(CN1CCCCC1)N1N=C(c2cccs2)CC1c1cccs1 (centres undefined) | 3.6 | 0% | 54 | · | -3
O=C(NCCCc1ccccc1)c1ccccc1 | 1.1 | -4% | -11 | 10 | -4
Cc1ccc(OCCNC(=O)c2ccc(COc3ccccc3)o2)cc1 | -2.3 | · | -3 | · | ·
O=C(NCCCN1CCCC1=O)Nc1ccccc1F | 1.8 | · | -11 | · | ·
COC(=O)Nc1ccc(S(=O)(=O)N2CCCC(C(=O)NC3CCS(=O)(=O)C3)C2)cc1 (centres undefined) | -4.2 | 0% | 0 | -32 | 12
COc1ccc(NC(=O)C2CCN(S(=O)(=O)c3cccc4cccnc34)CC2)cc1OC | -0.4 | · | 3 | -24 | 5 | Arbovirus inh repeat=2
CCOC(=O)C1=C(C)NC(C)=C(C(=O)OCC)C1c1sccc1C | 2.6 | 2% | ? | -5 | -23
CC1=C(/C=C/C(C)=N\NC(=O)c2ccncc2)C(C)(C)CCC1 | 9.7 | ? | 92 | · | -8
Cc1cccc(NC(=O)CCNC(=O)c2ccco2)c1 | -1.5 | -6% | -12 | -41 | -2
CC1(c2ccc(OC(F)F)cc2)NC(=O)N(CC(=O)Nc2ccc(N3CCCCC3)cc2)C1=O (centres undefined) | -3.1 | · | -4 | · | ·
O=C(c1ccc(F)cc1)N1CCN(c2cc(N3CCCCC3)c(F)cc2[N+](=O)[O-])CC1 | 12 | 10% | 71 | -23 | -4
COc1ccc(OC)c(S(=O)(=O)N2CCC(C(=O)NC3CC3)CC2)c1 | 0.8 | · | 4 | · | ·
Clc1ccc(-n2cccc2CN2CCc3c([nH]c4ccccc34)C2c2ccccn2)nc1 (centres undefined) | 5.7 | 38% | 83 | · | 9
CCCOc1cc(CN2CCCCC2)cc(C(C)=O)c1 | 1.6 | -1% | -1 | -19 | -1
COc1cccc(N2CCN(C(=O)c3cc4c(=O)n(Cc5ccccc5)ccc4nc3C)CC2)c1 | -4.3 | · | 7 | · | ·
CCC(=O)Oc1ccc(C/C(=N\O)c2ccc(O)cc2O)o1 | 0.2 | -7% | 16 | -16 | -1
The results go on:
SMILES | RecA splice inh | Mtb H37Rv | Mtb betalactam | YopH inh | Arbovirus inh | others
N#CC1=C(N)NC(SCc2ccc(Br)cc2)=C(C#N)C12CCCCC2 | 24 | · | -4 | -19 | -35
Brc1ccc(-c2cnco2)cc1 | -1.0 | -3% | -2 | · | 6
COc1ccc(OCc2nnc(SCC(=O)Nc3cccc(Cl)c3)o2)cc1 | 0.5 | · | -3 | · | ·
O=C1c2ccccc2C(Nc2ccc3c(c2)OCCO3)N1Cc1ccco1 (centres undefined) | 2.2 | 7% | ? | -33 | 7
Cc1ncc(CN2CCCC(C(=O)Nc3ccc(-c4ccco4)cc3)C2)n1C (centres undefined) | 0.9 | · | -5 | · | ·
Cn1cccc1/C=N/n1c(-c2ccc(Cl)cc2Cl)n[nH]c1=S | 5.1 | -4% | -11 | 1 | 9
COC(=O)c1c(C)[nH]c(-c2csc(N)n2)c1C | -3.1 | -6% | -2 | · | -20
CC(Sc1nnnn1C)C(=O)Nc1ccc(N2CCOCC2)cc1 (centres undefined) | -0.8 | -9% | -19 | -40 | 9
C=CCn1c(SCc2nc(N)nc(N3CCCCC3)n2)nnc1-c1ccco1 | 1.3 | -6% | -7 | -63 | -1
O=C(COC(=O)c1ccccc1NCCO)NCc1cccs1 | -0.8 | · | -5 | · | ·
CCc1ccc2c(c1)C(c1ccc([N+](=O)[O-])cc1)=NNC(c1ccc(C)cc1)=N2 | 0.0 | 7% | 78 | -12 | -10
COc1ccc(/C=C(\C#N)C(=O)Nc2cccc3ncccc23)cc1OC | -9.8 | -1% | -4 | · | ·
Cc1cccc(N2CCN(C(=O)CN3C(=O)C4CC=CCC4C3=O)CC2)c1C (centres undefined) | -2.4 | 5% | -6 | · | 9
O=C(CNCc1cccc2ccccc12)Nc1ccccc1[N+](=O)[O-] | 3.0 | 2% | -3 | · | 7
CC(C)Oc1ccc(CN2CCC(n3nccc3NC(=O)CCc3ccccc3)CC2)cc1 | 2.1 | · | ? | · | ·
COc1cc(S(=O)(=O)N2CCN(c3ccccc3F)CC2)c(OC)cc1Cl | 9.7 | 0% | -8 | -27 | -7
Cn1cc(/C=C(\NC(=O)c2ccccc2Cl)C(=O)NCCCN2CCOCC2)c2ccccc21 | 1.1 | · | -4 | · | ·
Clc1ccc(/C=N/Nc2ccccn2)cc1 | · | 1% | 12 | · | -2
Cc1snc(SCc2cccc(Cl)c2)c1C#N | 6.9 | · | -1 | · | ·
CCC(C)n1c(O)c(C=NC(C)c2ccccc2)c(=O)[nH]c1=S (centres undefined) | 1.9 | 5% | 2 | · | ·
O=C(NCc1ccccn1)c1ccc(Cl)c(NC2=NC3CS(=O)(=O)CC3S2)c1 (centres undefined) | 0.2 | · | 0 | · | ·
O=C(C1CCC(CNS(=O)(=O)c2ccccc2)CC1)N1CCOCC1 (centres undefined) | -0.5 | · | -13 | · | ·
C/C(=N\Nc1nncc2ccccc12)c1cccc(OC(F)F)c1 | -2.1 | · | 10 | · | ·
Cc1cc(N2CCC(C(=O)N3CCN(c4cccc(C)c4C)CC3)CC2)n2ncnc2n1 | · | 1% | ? | -36 | -5
Cc1cc(NC(=O)Cn2c(=O)c3c(ncn3CC(C)C)n(Cc3ccccc3)c2=O)no1 | · | -4% | 5 | -35 | 5
COc1ccc(/C=N/Nc2nnc(C)n2N)cc1OC(C)=O | 7.5 | · | 7 | · | ·
Fc1ccc(NC(=S)NN=C2CCCCCC2)cc1 | 9.2 | -2% | 12 | -8 | -4
Cc1ccn2c(Nc3ccccc3C)c(-c3ccccn3)nc2c1 | 18 | 1.4µM* | 98 | · | -26
Cc1ccn2cc(CNS(=O)(=O)c3ccc4c(c3)OCCO4)nc2c1 | 0.5 | 6% | 2 | -17 | -2
Cc1ccc(OCC(=O)NCc2ccccn2)c(Br)c1 | 2.3 | 0% | 9 | -36 | 6 | Arbovirus inh repeat=-5
Cc1cc(NC(=O)C2C3C(=O)N(Cc4ccc(Cl)cc4)C(C(=O)NCc4ccccc4)C34C=CC2(C)O4)no1 (centres undefined) | -1.8 | -3% | -6 | -15 | 1
CC(C)CC(NC(N)=O)C(=O)Nc1cccc([N+](=O)[O-])c1 (centres undefined) | -5.0 | 2% | -4 | · | 0
O=C(Oc1c(-c2ccco2)oc2ccccc2c1=O)c1cccnc1 | -100 | ? | 92 | · | 17
CN(C)c1nc(NCc2ccccc2)nc(N/N=C/c2ccc3c(c2)OCO3)n1 | 3.6 | ? | 91 | -3 | 27
O=[N+]([O-])c1ccccc1S(=O)(=O)Nc1ccc2c(c1)OCCO2 | -1.6 | · | 6 | · | ·
CCN(CC)CCCNC(=O)C1CCC(=O)N(c2ccc(OC)cc2)C1c1ccc(F)cc1 (centres undefined) | 2.3 | -2% | 3 | -25 | 5
O=C(O)CC1(c2ccccc2)C(=O)c2ccccc2C1=O | -0.7 | -6% | 13 | -29 | 0
Cc1ccccc1-c1nc(CS(=O)CC(=O)NCCN2CCN(Cc3ccccc3)CC2)c(C)o1 (centres undefined) | 6.0 | -8% | 5 | 15 | 15
COc1cc(CNCc2cccc3ccccc23)cc(OC)c1 | -2.0 | · | -3 | · | ·
